HSV replic up: HSV replication enhancement | HSV replication augmentation in cells, fold increase | maximum fold increase | actives 0.005% (n = 220,000);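 active = peak rise of 1.5-fold or more in the series; inconclusive = self-fluorescent or not available for retest; tested in PC3 cells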;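 note: first round at 10 µM; read as green reporter fluorescence; hits show the peak of a series up to 25 µM; 1 = signal of infected wells without compound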
PKD1 inh: PKD1 (human) kinase inhibition; inhibition, %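 (about 10 µM by stock and volumes)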; actives 0.056% (n = 200,000); Q15139; PKD1 kinase fluorescence polarization assay;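 active = inhibition of 50% or more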;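 note: controls were vehicle for no effect and a reference inhibitor for full effect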
RGS16-Gao HTS: RGS16-Galphao interaction regulator (human) | AID 1441 | O15492+P09471 | bead-based flow cytometry RGS16-Galphao binding, fluorescence; actives lie on both sides | binding response (% of control), % at 10 µM | actives 0.38% (n = 220,000);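 active = below 25% or above 175%, edge rows of some plates excepted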;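 note: Galphao activated by GDP with aluminum fluoride before binding; 100% = wells without compound and 0% = beads without RGS; some results beyond the cut were filed as inactive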
Target sequence (O15492 whole entry, looked up): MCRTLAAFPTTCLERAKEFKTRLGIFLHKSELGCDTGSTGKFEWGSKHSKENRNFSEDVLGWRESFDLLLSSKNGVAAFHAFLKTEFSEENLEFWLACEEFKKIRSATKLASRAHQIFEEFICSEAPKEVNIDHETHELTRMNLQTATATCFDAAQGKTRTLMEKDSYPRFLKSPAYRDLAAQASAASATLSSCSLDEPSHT
Target sequence (P09471 whole entry, looked up): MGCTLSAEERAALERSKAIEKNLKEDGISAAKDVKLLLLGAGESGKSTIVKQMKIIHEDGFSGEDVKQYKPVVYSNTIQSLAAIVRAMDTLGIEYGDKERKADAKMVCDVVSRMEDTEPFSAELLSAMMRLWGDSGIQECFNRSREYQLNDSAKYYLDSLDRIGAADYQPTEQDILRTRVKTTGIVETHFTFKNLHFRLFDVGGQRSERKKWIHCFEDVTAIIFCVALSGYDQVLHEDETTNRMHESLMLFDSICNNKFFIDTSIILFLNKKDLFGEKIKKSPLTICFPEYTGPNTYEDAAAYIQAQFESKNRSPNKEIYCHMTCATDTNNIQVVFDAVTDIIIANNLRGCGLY
GALR2 agonist: GALR2 (human) receptor agonism; O43603; GALR2-expressing cells, agonist activation read-out; activation, %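 (tested at 5 µM)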; actives 0.48% (n = 140,000); AID 803;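 active = above mean plus 3 SD of all compounds, about 5% in these data, not always enough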;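 note: 0% = vehicle buffer wells and 100% = reference agonist at full effect; tested in CHO reporter cells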
Target sequence (O43603 whole entry, looked up): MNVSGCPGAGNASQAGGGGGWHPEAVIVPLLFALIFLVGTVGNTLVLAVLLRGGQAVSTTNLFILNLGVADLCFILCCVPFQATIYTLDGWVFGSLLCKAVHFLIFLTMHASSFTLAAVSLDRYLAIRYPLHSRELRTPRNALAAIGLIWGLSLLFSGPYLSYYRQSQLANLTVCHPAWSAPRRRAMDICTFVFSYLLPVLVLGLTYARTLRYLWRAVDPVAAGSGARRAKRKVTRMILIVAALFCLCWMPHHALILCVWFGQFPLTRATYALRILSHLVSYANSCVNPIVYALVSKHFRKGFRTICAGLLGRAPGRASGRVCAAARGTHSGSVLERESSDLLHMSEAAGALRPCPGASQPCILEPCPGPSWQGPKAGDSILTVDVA
INS promoter inh: TRM-6 insulin promoter activity inhibition; inhibition, % at 2 µM; AID 1273; actives 0.9% (n = 130,000); TRM-6 cells (human fetal islet line), insulin promoter-eGFP reporter, imaging; reporter expression induced with tamoxifen;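 active = inhibition above the mean plus 3 SD, with well images judged a real hit on visual review, cut at about 60% in these data, passing the limit was not always enough; inconclusive = inhibition over the cutoff but images rejected on review; inactive = inhibition not above the cutoff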
INS promoter inh cell count: further read-out of INS promoter inh, marked with its call; normalized cell count, %; measured here: cell count, toxicity; reference of the scale not given here;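 cells exposed to compound for 48 h; stained nuclei by imaging scaled within each plate; lower means fewer cells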
HSV replic up primary fold: further read-out of HSV replic up, marked with its call; fold increase; compound at 10 µM; measured here: primary screen fold increase 10 uM; tested in PC3 cells;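 GFP signal in the first replicate; 1 = infected wells without compound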
* = called active by the depositor; i = inactive; ? = inconclusive; nt = not tested or not shown. Outcome played no part in choosing rows. About 1.3% of those tested had a hit in this group.

Sequence of screens: HSV replic up	HSV replic up primary fold	PKD1 inh	RGS16-Gao HTS	GALR2 agonist	INS promoter inh	INS promoter inh cell count
> CCSc1nc(C)nc2c1oc1ccccc12
 : i	0.62	0	95	0.0	nt	nt
> N#Cc1ccc(C(=O)Nc2nc(-c3cccs3)c(C(=O)C(F)(F)F)s2)cc1
 : nt	nt	-16	nt	-2.0	52	83
> CC1(C)CC(=O)C=C(NNC(=O)c2cccnc2)C1
 : i	1.2	nt	96	nt	nt	nt
> O=C(NNc1nc2c(F)cccc2s1)c1cc(=O)c2ccccc2o1
 : nt	nt	-2	105	nt	nt	nt
> CN1CCN(S(=O)(=O)c2ccc(NC(=O)c3ccc(F)cc3)cc2)CC1
 : i	1.1	1	102	-1.4	56	64
> COC(=O)c1ccc(-c2nc(O)c(C)s2)cc1
 : i	1	11	94	nt	nt	nt
> CC(C)(C)c1csc(Sc2ncccc2[N+](=O)[O-])n1
 : i	1.1	nt	95	nt	nt	nt
> Cc1ccccc1Cn1c2ccccc2c2cn[nH]c(=O)c21
 : i	0.93	9	117	1.3	nt	nt
> COC(=O)c1ccc(C2CC(=O)NC3=C2C(=O)CCC3)cc1 (centres undefined)
 : i	0.91	1	110	-1.2	nt	nt
> CCc1nnc(NC(=O)CSc2ccc(-c3ccc(F)cc3)nn2)s1
 : i	0.98	-1	102	nt	nt	nt
> O=C(O)CCC(=O)N1N=C(c2ccccc2)CC1c1ccc2nccnc2c1 (centres undefined)
 : i	1	0	7	-1.2	-5	73
> COc1c2occc2c(OC)c2c(=O)cc(C(F)(F)C(F)(F)F)oc12
 : i	0.71	-3	101	-1.4	nt	nt
> Cn1c(=O)[nH]c(=O)c2[nH]c(CN3CCN(C(=O)c4ccco4)CC3)nc21
 : i	0.87	-6	104	-1.5	34	123
> O=C(CSc1nc(-c2ccccc2)cc(C(F)(F)F)n1)NCc1ccco1
 : i	0.75	-12	96	-1.0	7	92
> O=C(COC(=O)c1ccc(S(=O)(=O)N2CCc3ccccc3C2)cc1)NC1CCS(=O)(=O)C1 (centres undefined)
 : i	0.96	-1	101	nt	nt	nt
> CC1CCN(CCOc2cc(Cl)ccc2Cl)CC1
 : i	0.83	-11	99	-3.7	31	103
> Cc1ccccc1Nc1nc(N)nc(CSc2nncn2C)n1
 : i	1	1	106	nt	25	79
> C=C(C)CNC(=S)N/N=C/c1ccc(N2CCOCC2)cc1
 : i	0.73	-5	108	-0.5	-23	75
> Brc1ccc2ncc(Br)cc2c1
 : i	1	-9	108	0.1	14	103
> Cc1cccnc1NC(=O)C1CCN(S(=O)(=O)c2ccc3c(c2)CCC(=O)N3)CC1
 : i	0.92	-7	112	-2.4	nt	nt
> CCC(C)Sc1nc2c(c(=O)[nH]1)C(c1cccs1)C1=C(CCCC1=O)N2 (centres undefined)
 : i	0.79	-4	102	nt	-44	42
> CCCCc1ccc(NC(=O)COc2ccc(C(=O)Nc3ccccc3C)cc2)cc1
 : i	0.86	-10	92	5.8*	-14	102
> Nc1ncnc2nc(SCc3ccccc3)[nH]c12
 : i	0.89	0	101	-0.5	-11	133
> CCOC(=O)c1c(C)c(C(=O)NCc2ccco2)c(C)n1CC
 : i	0.94	9	105	nt	25	133
> CCOc1cc2c(C)cc(=O)oc2cc1Cl
 : i	0.92	-7	101	-1.0	nt	nt
> O=C1C2Sc3[nH]c(=O)sc3C(c3ccccc3)C2C(=O)N1c1ccccc1 (centres undefined)
 : i	1.3	-3	98	-1.4	-19	103
> Cc1ccc(S(=O)(=O)N2CCOCC2)cc1C(=O)c1nccn1C
 : i	1	8	102	nt	nt	nt
> CCOc1ccc(-c2cc(C(=O)OC)[nH]n2)cc1
 : i	1	-6	131	nt	0	93
> Cc1cccc(/C=C2/SC(=O)N(Cc3ccccc3Cl)C2=O)n1
 : i	0.98	6	80	-1.6	nt	nt
> CCN1C(C)=C(C)S/C1=C1\SC(=S)N(C2CCCCC2)C1=O
 : i	0.89	-2	92	nt	-25	91

2 compounds drawn at random from the list so far:
Sequence of screens: HSV replic up	HSV replic up primary fold	PKD1 inh	RGS16-Gao HTS	GALR2 agonist	INS promoter inh	INS promoter inh cell count
> CCC(C)Sc1nc2c(c(=O)[nH]1)C(c1cccs1)C1=C(CCCC1=O)N2 (centres undefined)
 : i	0.79	-4	102	nt	-44	42
> COC(=O)c1ccc(C2CC(=O)NC3=C2C(=O)CCC3)cc1 (centres undefined)
 : i	0.91	1	110	-1.2	nt	nt

New compounds follow
Sequence of screens: HSV replic up	HSV replic up primary fold	PKD1 inh	RGS16-Gao HTS	GALR2 agonist	INS promoter inh	INS promoter inh cell count
> Cc1cccc(CN2CCN(Cc3ccc4nonc4c3)CC2CCO)n1 (centres undefined)
 : i	1.1	3	97	nt	nt	nt
> CCOC(=O)c1cc(C(C)(C)C)oc1CN
 : i	0.97	-8	108	-0.9	7	102
> C/C=C(\C)C(=O)NCCN1C2=NC[C@H](Cc3ccc(O)cc3)N2C[C@H]1Cc1ccc(O)cc1
 : i	0.93	6	105	nt	nt	nt
> CCC(C)(NC(=O)c1ccccc1)C(=O)O (centres undefined)
 : i	0.96	1	110	-1.4	8	138
> CN1CCS/C1=C\C=C1/SC(=S)N(CC(=O)O)C1=O
 : nt	nt	-6	98	nt	-17	109
> COc1ccc(C2CC(=O)C=C(NNS(=O)(=O)c3ccc(C)cc3)C2)cc1 (centres undefined)
 : ?	nt	6	100	-0.1	nt	nt
> COc1cccc(NC(=O)CN2CCN(c3ccc(F)cc3)CC2)c1
 : i	0.99	-4	101	-3.4	-6	113
> O=C(O)CCC(=O)N1N=C(c2c(-c3ccccc3)c3cc(Cl)ccc3[nH]c2=O)CC1c1ccccc1 (centres undefined)
 : i	0.96	0	101	nt	38	108
> Cn1cccc1Cc1nnc(SCC(=O)Nc2nccs2)n1CCc1ccccc1
 : nt	nt	3	99	0.2	nt	nt
> COC(=O)CNC(=O)Cn1ccc2ccccc2c1=O
 : i	0.89	-1	89	-0.6	nt	nt
> N/C(=N\NC(=O)c1ccc(F)cc1)c1cc2ccccc2oc1=O
 : i	1	8	100	nt	-5	105
> Cn1cc2cc([N+](=O)[O-])ccc2n1
 : i	1.1	-4	102	nt	nt	nt
> O=C(COc1ccccc1)N/N=C/c1sc(=O)n(Cc2cccc(C(=O)O)c2)c1Cl
 : i	1	nt	102	nt	nt	nt
> COc1cc(NC(=O)CSCC(=O)Nc2cccc(C(F)(F)F)c2)c(Cl)cc1Cl
 : i	1.1	-13	94	-0.7	9	58
> Cn1c(CNS(=O)(=O)c2ccc(Cl)cc2)n[nH]c1=S
 : i	0.85	-2	100	-2.2	27	64
> COc1ccc(CCNC(=O)C2CCCN(Cc3nc(-c4ccccc4C)oc3C)C2)cc1OC (centres undefined)
 : nt	nt	1	104	-0.2	-86	68
> CCN1CC2([N+](=O)[O-])C=CC(=O)C([N+](=O)[O-])(C1)C2CC(=O)c1ccccc1 (centres undefined)
 : i	0.87	1	103	-1.7	-1	92
> CCOC(=O)/C=c1\s/c(=C(\C#N)C(=O)NC)n(-c2ccccc2)c1=O
 : i	1	-1	104	-0.9	-12	158
> O=C(Cn1nnc(-c2ccccc2NC(=O)c2ccccc2F)n1)NC1CCCC1
 : i	0.82	-6	109	nt	nt	nt
> Cc1ccc(NCC(=O)Nc2ccc(Br)cc2)cc1F
 : i	0.94	-2	105	0.1	nt	nt
> O=C(NCCN1CCCCC1)Nc1ccc(F)c(Cl)c1
 : i	0.81	-2	109	-1.6	38	74
> O=C(CN1CCCCC1)NCCNc1ccc(C(F)(F)F)cc1[N+](=O)[O-]
 : i	1	-9	87	-0.6	9	94
> CCN1CCN(c2cc(C)c3cc(NC(=S)NCc4cccs4)ccc3n2)CC1
 : i	0.76	-2	101	nt	nt	nt
> Cn1c(O)c(C2=c3ccccc3=NC2=O)sc1=Nc1ccc(Cl)cc1
 : i	1	5	97	-1.9	-71	88
> Cc1ccc(NC(=O)CSc2nnc(C)c(=O)[nH]2)cc1C
 : i	1	-7	98	nt	-60	109
> CCOc1ccc(NC(=O)CN2C(=O)S/C(=C/c3cccn3C)C2=O)cc1
 : i	1	-12	101	nt	nt	nt
> Cc1cc(CNC(=O)c2cccc([N+](=O)[O-])c2C)c2ccccc2n1
 : nt	nt	-12	86	nt	-8	108
> COc1ccc2c(c1)CC/C(=C\c1ccc(C)o1)C2=O
 : ?	nt	nt	93	nt	nt	nt
> Cc1c(NC(=O)C2Cc3ccccc3CN2C(=O)c2ccco2)c(=O)n(-c2ccccc2)n1C (centres undefined)
 : i	1	-7	92	0.5	nt	nt
> Cc1ccc(O)c(CNc2ccccn2)c1
 : i	0.92	8	100	-1.1	64	173
> O=C(Nc1ncc2c(n1)-c1ccccc1OC2)c1ccc(F)cc1
 : i	0.94	15	110	nt	56	152
> COC(=O)c1cc(S(=O)(=O)Nc2nn(C)c3ccccc23)oc1C
 : i	1	nt	108	nt	nt	nt
> Cc1ccc(OCc2cn3cccnc3n2)cc1
 : i	0.96	-2	68	-1.1	36	72
> CCC1S/C(=N\S(=O)(=O)c2cccs2)N(C2CCCCC2)C1=O (centres undefined)
 : i	0.74	-4	103	-1.3	29	29
> CN(Cc1ccccc1)C(=O)CCCn1c(=O)[nH]c2cc(Cl)ccc2c1=O
 : i	1	3	90	0.1	43	71
> CC(C)CCNC(=O)Cn1c(NCCC(C)C)nc2c1c(=O)n(C)c(=O)n2C
 : i	0.95	-2	nt	-1.1	nt	nt
> CC(C)OCC1CC(CC(=O)NC(=S)Nc2cccc([N+](=O)[O-])c2)C(=O)O1 (centres undefined)
 : i	0.85	-2	103	-0.8	-9	151
> COc1ccc(N2CC(C(=O)N/N=C/c3cccs3)CC2=O)cc1 (centres undefined)
 : i	1	8	101	nt	nt	nt
> COc1ccc(-n2c(C)nc3c(cnn3-c3ccc(Cl)cc3)c2=O)cc1
 : i	0.92	-14	96	0.1	43	88
> CN(C)S(=O)(=O)N1CCN(C(=O)c2cccc(Br)c2)CC1
 : nt	nt	-9	92	-2.6	-29	106
> O=C(NCc1ccccc1)C(=O)NCC1COc2ccccc2O1 (centres undefined)
 : i	0.95	1	98	-0.8	62	111
> COc1ccccc1Nc1nc(N)nc(CN2CCN(Cc3ccccc3)CC2)n1
 : i	0.74	-8	95	-1.3	nt	nt
> CCn1cc(C(=O)N(CCC(C)C)c2c(N)n(Cc3ccccc3)c(=O)[nH]c2=O)c(=O)c2ccc(C)nc21
 : i	1	-3	109	nt	-7	63
> O=C(Nc1ccccc1C(F)(F)F)c1cc(-c2ccc(O)cc2)on1
 : i	0.94	-6	150	-0.7	-24	129
> N/C(Cc1ccc([N+](=O)[O-])cc1)=N\OC(=O)CC1CCCCC1
 : i	0.94	-11	106	-1.5	nt	nt
> CC(C)(C)c1ccc(S(=O)(=O)N2CCC(CO)(CC3CCCCO3)CC2)cc1 (centres undefined)
 : i	0.97	-8	106	nt	nt	nt
> Cc1ccc(S(=O)(=O)N2CCN(CC(=O)Nc3ccc(N4CCOCC4)cc3)CC2)cc1C
 : nt	nt	-1	93	-1.1	nt	nt
> CC(C)NC(=O)CSc1nc(N)c(NC(=O)c2ccccc2F)c(=O)[nH]1
 : i	0.87	-2	121	-1.6	40	79
> O=C(CSc1nnnn1-c1cccc2c1CCCC2)N1CCOCC1
 : i	0.85	-3	108	-3.2	nt	nt
> O=Cc1cccn1-c1ccccc1
 : i	1.1	nt	84	nt	nt	nt
> CCCSc1nc2c3c(sc2c(=O)[nH]1)CC(C)(CC)OC3 (centres undefined)
 : i	0.92	-8	98	nt	nt	nt
> C=CCN1C(=Nc2ccccc2)SC/C1=C\C(=O)OC
 : i	1.2	-8	108	0.0	45	154
> O=C(CS(=O)(=O)Cc1ccccc1)NCc1ccco1
 : i	0.85	-3	108	nt	33	180
> CCN(CC)CCOCCOC(=O)C(CC)(CC)c1ccccc1
 : i	0.98	nt	100	nt	nt	nt
> CCOC(=O)CCCCC(=O)NC(CO)C(=O)NC (centres undefined)
 : i	0.92	4	100	-2.2	-231	88
> NNC(=O)c1cccc(O)c1
 : i	0.98	-4	85	-1.6	38	114
> Cc1cc(C)cc(NC(=O)N(CCC#N)Cc2cccs2)c1
 : i	1	nt	98	nt	nt	nt
> COc1ccc(-n2c(C)cc(-c3csc(NC(=O)c4ccc(S(=O)(=O)N(C)C)cc4)n3)c2C)cc1
 : i	1.1	-9	100	-1.1	14	108
> Cc1ccc(-c2cc(C(=O)Nc3c(C)n(C)n(-c4ccccc4)c3=O)no2)cc1
 : i	0.85	10	106	nt	nt	nt
> O=S(=O)(c1ccccc1)c1nc(-c2ccco2)oc1Nc1ccccc1
 : i	0.99	-3	112	0.2	-19	80
> O=C(COC(=O)CCSc1ccccc1)NCc1ccc(F)cc1
 : i	0.96	-2	96	nt	0	117

Screens as filed in PubChem BioAssay.
